# gsp antagonist: antagonists of gsp mutant (McCune-Albright syndrome); 0.4% of 340,000 active; gsp-mutant cells, cAMP HTRF, 30 min; control for the full effect not named in the record; Potency, µM (top dose mostly 76.9 µM), inactives show top-dose activity change, negative = inhibition, actives largely listed as inhibitors; active = falling curve of any shape with a large fitted effect; inconclusive = falling curve, mostly with a smaller effect; inactive = flat or rising curve; cell line not stated here;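 further: intracellular cAMP measured with PDE inhibitor Ro 20-1724 present during compound exposure; potency means the concentration at half of the fitted maximal effect; on the % scale 0 is the no-effect control and ±100 the full control effect; nearly all actives have a fitted effect of over 65% in size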
#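 Cells, 2000/well, grown 16–24 h in DMEM 10% FBS with 0.5 mg/ml G418, then compounds plus […] (300 uM addition stock), 30 min at 37C. cAMP read by HTRF (cAMP-d2 and anti-cAMP antibody-K in lysis buffer) after 30 min RT.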
# Sfp PPTase inh: blocks B. subtilis Sfp PPTase activity | Q9F4F7 | Potency, µM, inactives show max response, negative = inhibition, hits mostly inhibitors | Biochemical Sfp PPTase activity, qHTS | 3.5% of 310,000 active; active means well fitted inhibition curve with a large enough effect; inconclusive means small, poorly fitted or top-dose-only effect, or another doubt; inactive means no such curve, though single readings can be large or run the other way;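 further: the enzyme is Sfp with the accession as filed and its product quenches rhodamine fluorescence; potency means the concentration at half of the fitted maximal effect; 0% = enzyme reaction without inhibitor and -100% = no enzyme wells; top concentration of the series not given in the record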
#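 Compounds were incubated with enzyme (final 15 nM) for 15 min at room temperature before substrate addition started the reaction. Fluorescence at 525 nm excitation, 598 nm emission was recorded immediately and after 30 minutes.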
# gsp agonist: gsp mutant agonism | 0.13% of 340,000 active | gsp mutant cells, cAMP HTRF, 30 min; control for the full effect not named in the record | Potency, µM (doses to about 76.9 µM), inactives show top-dose activation (cAMP increase), most hits filed as activators; active = well fitted activation curve with a large enough effect; inconclusive = small, poorly fitted or top-dose-only effect, or another doubt; inactive = no such curve, though single readings can be large or run the other way; cell line not stated here;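 further: phosphodiesterase inhibitor Ro 20-1724 added with compounds to block cAMP breakdown; potency means the concentration at half of the fitted maximal effect; nearly all actives have a fitted effect of over 60% in size; about a fifth of the inactives were tested at one dose only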
#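 Cells stably selected in G418 were plated at 2000/well, grown 16-24 hr, then given compounds in DMSO with the PDE inhibitor […] (300 uM solution added) for 30 min at 37C; cAMP was read by HTRF.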
# Menin MLL FP FL: menin-MLL binding inhibition, fluorescein peptide | Fluorescence polarization, fluorescein-MLL peptide displacement from menin | FP activity change, % at 61.4 µM | 290,000 tested, under 10 active | AID 1766; inconclusive = falling polarisation curve, or a change in total fluorescence; inactive = total fluorescence flat and polarisation flat or rising; no compound was filed as active; the % refers to the polarisation; negative = inhibition;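 further: % of control where 0% means no effect; inhibitors lower the polarisation; unlabelled MLL peptide was the positive control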
# TRPV1 potentiator: human TRPV1 potentiation; AID 540277; potentiation, % at 8.33 µM; Q8NER1; 0.02% of 320,000 active; TRPV1-expressing cells, Fluo-8 calcium influx, capsaicin EC20 potentiation; host cell line not named in the record; control for the full effect not named in the record; active means potentiation above 80%; inconclusive means 30% to 80%; inactive means below 30%; further: 0% is about no effect
#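 Fluo-8 calcium influx in TRPV1-expressing cells, kinetic read (ex 480/em 520 nm). Compound added and read 3 min for agonist activity, followed by capsaicin at EC20 final and 2 min further read for enhancement.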
# D2 potentiator: positive allosteric modulators of human D2 dopamine receptor; AID 624464; DiscoveRx D2 beta-arrestin cells, luminescence, 90 min; 100% = 57 uM dopamine signal; 0.23% of 360,000 active; potentiation, % (concentration not given with the values); P14416; active = potentiation of 50% or more; inconclusive = 30% to 50%; inactive = 30% or less;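 further: compound concentration not given in the record; tested on top of an EC20 dose of dopamine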
# Target sequence (P14416 whole entry, looked up): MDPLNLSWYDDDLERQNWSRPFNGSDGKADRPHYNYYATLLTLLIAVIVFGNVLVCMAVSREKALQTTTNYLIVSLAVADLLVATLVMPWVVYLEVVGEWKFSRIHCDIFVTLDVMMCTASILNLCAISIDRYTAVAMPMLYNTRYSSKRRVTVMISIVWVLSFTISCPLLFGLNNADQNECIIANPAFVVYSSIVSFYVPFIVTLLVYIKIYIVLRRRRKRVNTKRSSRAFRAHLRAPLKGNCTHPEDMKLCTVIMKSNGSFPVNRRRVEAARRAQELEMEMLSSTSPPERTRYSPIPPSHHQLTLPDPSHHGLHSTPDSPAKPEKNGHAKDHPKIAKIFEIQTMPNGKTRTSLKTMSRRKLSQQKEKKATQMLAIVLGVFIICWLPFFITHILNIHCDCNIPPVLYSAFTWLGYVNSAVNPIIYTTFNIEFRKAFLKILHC
#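 D2 cells co-treated with compound plus 50 nM dopamine (EC20) for 90 min at 37 deg C to detect potentiation. Beta-arrestin recruitment was read as enzyme-fragment luminescence after 1 h at ambient temperature. Full response was set by 57 uM dopamine.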
# ClpP mod: qHTS Assay for Activators of ClpP. ATP-dependent Clp protease proteolytic subunit (Bacillus subtilis (strain 168)), P80244. purified B. subtilis ClpP, FRET peptide cleavage, 20 min. Potency, µM (series often up to 57.5 µM), inactives show at the highest dose activity change, negative = active. 1.9% of 340,000 active. AID 651965, 2013; active = well fitted falling curve with a large enough effect; inconclusive = small, poorly fitted or top-dose-only effect; inactive = no such curve, though single readings can be large or run the other way; further: potency means the concentration at half of the fitted maximal effect; the source files actives as falling curves though it sought activators and does not explain the sign; nearly all actives have a fitted effect of over 65% in size; many hits overshoot -100%
# Target sequence (P80244 whole entry, looked up): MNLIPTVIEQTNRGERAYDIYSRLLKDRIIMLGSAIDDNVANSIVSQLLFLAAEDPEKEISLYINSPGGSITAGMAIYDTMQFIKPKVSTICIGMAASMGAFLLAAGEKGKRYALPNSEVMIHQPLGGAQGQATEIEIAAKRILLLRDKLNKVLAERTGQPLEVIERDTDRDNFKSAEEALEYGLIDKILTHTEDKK
#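 Buffer: 100 mM Tris/HCl pH8, 100 mM KCl, 0.05% low protease BSA, 2.5% glycerol, 0.01% Tween-20. ClpP 10 microg/mL final; 20 min RT; delta FRET normalized to ADEP and DMSO controls.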
# An asterisk follows results filed as active; ? = inconclusive; . = no result given; [ ] = another dose, or the depositor's remark.
SMILES,gsp antagonist,Sfp PPTase inh,gsp agonist,Menin MLL FP FL,TRPV1 potentiator,D2 potentiator,ClpP mod
COC(=O)c1cn(NC(=O)/C=C/c2ccc(OC)c(OC)c2)c(=O)c2ccccc12,11.0%,-6.5%,?,1.3,-5.2,2.8,-5.8%
CCNC(=O)c1sc2cc(C)ccc2c1Cl,-15.1%,7.1%,7.1%[15.4 µM],0.5,-21.8,-8.7,.
C#CCOCCOCCOCCNc1nc(N2CCN(C(=O)[C@H](C)n3cc(CCCN=C(N)N)nn3)CC2)nc(N2CCN(C(=O)[C@H](C)n3cc(CCCN=C(N)N)nn3)CC2)n1,-5.4%,8.3%,-3.8%,1.1,1.7,-6.7,-0.5%
CC1(C)Cc2c(C#N)c(N3CCN(C(=O)c4ccccc4Cl)CC3)nc(-c3ccco3)c2CS1,?,-99.5%,?,?,8.8,-10.8,28.2µM*
COc1ccc(C(C)NC(=O)C2CCCC2)cc1 (stereo not given),-21.9%,13.5%,-11.4%,2.4,-23.6,-1.6,.
COc1cc(SC)ccc1C(=O)Nc1nc2ccccc2[nH]1,1.5%,14.7%,?,-2.2,1.9,-13.3,3.6%
CSC(=S)N/N=C/c1c[nH]c2ccccc12,-11.5%,8.0%,17.0%[15.4 µM],3.7,-0.8,0.5,.
N#Cc1ccccc1CSc1ccc(-c2nc3ccccc3[nH]2)cn1,-19.3%,4.47µM*,-3.1%,-2.0,-11.8,-6.3,-21.0%
CN1CCN(C(=O)c2ccc(-c3nn(C)c(=O)c4ccccc34)cc2)CC1,3.5%,.,2.1%,.,.,-7.5,0.6%
O=C(c1ccco1)N1CCN(c2cc(=O)n(C3CCCCC3)c(=O)[nH]2)CC1,1.4%,-1.0%,0.0%,0.4,18.8,2.4,-2.2%
O=C(c1cccc(S(=O)(=O)N2CCCCC2)c1)N1CCCCC1,4.0%,19.9%,10.8%,3.9,-8.9,-12.3,1.6%
CCN(CC)c1ccc(/C=N/n2c(-c3ccccc3Br)n[nH]c2=S)cc1,?,?,-10.6%[15.4 µM],-3.2,-9.6,-21.9,1.3%
O=C(NCC1CC1)Nc1ccccc1,8.7%,9.1%,-21.9%[15.4 µM],-11.6,-16.4,-2.5,.
CCOC(=O)C1CCN(C(=O)COc2ccc(N(C)S(=O)(=O)c3ccc(C)cc3)cc2)CC1,.,10.1%,-2.7%[15.4 µM],1.0,-13.9,-5.4,.
COc1ccc(N(C(=O)Cc2cccs2)C(C(=O)NC2CCCCC2)c2cccn2C)cc1 (stereo not given),0.7%,19.6%,-6.2%,0.8,-13.7,-0.1,0.3%
Cc1cccc(-c2ocnc2C(=O)Nc2ccccc2NC(=O)c2ccccn2)c1,-10.1%,44.7µM*,?,10.4,9.4,-3.1,.
CCCCN1CC(COc2ccccc2)Oc2cccc(F)c2S1(=O)=O (stereo not given),-12.9%,.,.,.,.,2.4,-0.9%
Nc1cc(=O)[nH]c(=S)n1-c1cccc(C(F)(F)F)c1,2.7%,-7.1%,4.9%,-0.9,-16.7,10.7,-0.7%
CCN(c1ccccc1)S(=O)(=O)c1ccc(C(=O)NCC(c2ccccc2OC)N2CCCC2)cc1 (stereo not given),8.5%,.,1.8%,.,.,-29.8,-1.7%
O=C(CN1CCN(S(=O)(=O)c2ccc(Cl)cc2)CC1)Nc1ccc(F)cc1F,-6.0%,-2.9%,13.0%,3.4,-16.5,0.7,1.2%
O=C1c2ccccc2C(=O)N1n1c(=O)[nH]c2ccccc2c1=O,-4.9%,8.0%,15.2%,1.2,-13.4,4.2,15.1%
CC1O[C@@H](OC2C(COC3OC(CO)C(O)[C@H](O)C3O)OC(OC3CC[C@]4(C)C(CC[C@@]5(C)[C@@H]4CC=C4[C@@H]6CC(C)(C)CC[C@]6(CO)C(O)C[C@]45C)C3(C)C)C(O)C2O)C(O)C(O)C1O (stereo not given in full),-6.1%,.,.,.,.,-52.2,1.2%
CC(=O)c1cc2c(cc1NC(=O)Cc1c(C)noc1C)OCO2,-9.2%,.,3.8%[15.4 µM],.,.,10.6,1.2%
CC(C)c1nc2sc3c(=O)[nH]c(=S)[nH]c3c2c2c1CCC2,.,-2.4%,.,3.4,4.7,.,.
O=c1oc(C2(O)CCCCC2)cc2ccc(-c3ccc4[nH]ccc4c3)cc12,6.0%,.,.,.,.,-8.1,-18.9%

# The results go on.
SMILES,gsp antagonist,Sfp PPTase inh,gsp agonist,Menin MLL FP FL,TRPV1 potentiator,D2 potentiator,ClpP mod
O=C(CSc1nnc(NC(=O)c2ccccc2[N+](=O)[O-])s1)NC1CCCC1,-23.0%,.,8.9%[15.4 µM],.,.,-8.0,-0.7%
O=C(O)c1cccc2c1C(=O)c1ccc(-c3ccc(F)cc3OCc3ccccc3)cc1S2(=O)=O,-1.3%,.,.,.,-11.4,-3.0,-13.9%
Cc1ccc(CNC(=O)C2CCCN2C(=O)Nc2ccccc2)cc1 (stereo not given),4.6%,13.9%,-5.1%,-5.3,-0.5,-2.4,-0.6%
Cn1c(SCc2ccccc2F)nc2cccnc21,5.6%,14.5%,-29.3%,0.7,-33.9,-2.1,2.0%
COc1cc(/C=N/Nc2ccc([N+](=O)[O-])cc2S(=O)(=O)N2CCOCC2)cc(OC)c1OC,0.0%,15.7%,-13.4%[15.4 µM],1.0,6.4,-5.8,1.6%
C=CCn1c(C)cc(C(=O)COc2ccc(S(=O)(=O)N3CCCC3)cc2[N+](=O)[O-])c1C,-5.8%,-1.3%,-0.6%,1.3,-12.4,4.8,-1.0%
Cc1ccc(NS(=O)(=O)c2ccc3[nH]c(=O)c(=O)[nH]c3c2)cc1Cl,2.0%,17.8%,-35.2%[inhibitor],0.3,-2.7,-0.6,.
Cc1ccc(-c2nnc(CCC(=O)N(C)Cc3nccs3)o2)s1,2.9%,24.2%,20.1%,0.0,6.9,-1.6,.
COc1ccccc1NC(=O)c1cc2c(s1)-c1ccccc1S(=O)(=O)C2,-17.6%,0.4%,-4.8%[15.4 µM],6.3,16.4,0.2,.
Cc1ccc(NC(=O)CSc2ncn[nH]2)cc1S(=O)(=O)N1CCOCC1,1.2%,17.2%,-5.7%,3.2,11.7,-1.6,.
COCc1[nH]nc2c1C(c1ccnc3ccccc13)C(C#N)=C(N)O2 (stereo not given),-3.8%,-20.1%,17.4%,0.6,-12.6,-2.5,-3.0%
COc1ccccc1NC(=S)NNC(=O)c1cc(C)n(C)n1,5.9%,24.8%,6.4%,-1.1,-3.4,-0.2,-1.4%
O=C(c1ccccc1)C1CCN(C(=O)c2c(F)cccc2F)CC1,-0.4%,-5.2%,?,-0.8,12.8,-6.8,0.4%
OCCN1CCN(CC(O)COCc2ccc3c(c2)OCO3)CC1 (stereo not given),9.4%,17.7%,24.1%,-0.5,-1.2,-8.5,-2.6%
CCOC(=O)c1c(CS(=O)(=O)c2ccccc2)n(C)c2cc(Br)c(O)cc12,?,-1.3%,-0.7%,-1.5,-7.2,3.8,0.8%
CC1(C)Cc2c(c(-c3ccco3)[nH]c(=O)c2C#N)CS1,-0.1%,-89.1%,4.8%[15.4 µM],?,-4.2,-5.1,-16.5%
CC1CCC2(CC1)NC(=O)N(CC(=O)NCc1ccc(Cl)cc1)C2=O (stereo not given),4.3%,.,0.2%,.,.,-5.6,.
C=CCOc1ccc(CNn2nnnc2N)cc1,3.5%,-7.7%,-1.5%[15.4 µM],-2.6,9.9,-4.0,-1.5%
O=C(CSc1nnc(CNC(=O)c2c(F)cccc2Cl)o1)NC1CCCCC1,9.4%,6.1%,23.7%,.,8.8,-4.6,-0.4%
NS(=O)(=O)c1ccc(NC(=S)NC2CCCCC2)cc1,4.9%,7.94µM*,11.9%,-3.6,2.4,-4.4,0.2%
O=C(c1cc2ccccc2oc1=O)N(Cc1cccs1)Cc1ccccc1Cl,-14.3%,0.2%,-27.2%,-0.4,3.1,-0.4,-12.4%
CC[C@H](C)[C@H](NC(N)=O)C(=O)NCCc1ccc(OC)cc1,12.7%,-4.6%,1.2%[15.4 µM],2.3,.,-3.3,.
COc1ccc(N=C2c3ccccc3-c3ccc([N+](=O)[O-])cc32)cc1,-5.3%,.,?,.,.,3.2,.
CN1N=C2c3ccccc3CCC2C1c1ccc(F)cc1 (stereo not given),-2.5%,14.7%,-9.8%[15.4 µM],-0.2,-2.6,-2.5,0.3%
COc1ccc(OC)c(NC(=O)c2ccc3c(c2)C(=O)N(CC2CCCO2)C3=O)c1 (stereo not given),2.9%,14.1%,-20.4%,.,-3.3,-5.3,.

# (next part)
SMILES,gsp antagonist,Sfp PPTase inh,gsp agonist,Menin MLL FP FL,TRPV1 potentiator,D2 potentiator,ClpP mod
COc1ccc(CN(CC(=O)NCCC(C)C)C(=O)CCC(=O)Nc2nccs2)cc1,-2.4%,10.6%,3.2%,?,?,-3.4,.
CC1=CC(C)(C)NC(=S)N1c1ccccc1,9.8%,10.6%,23.9%,3.2,12.3,-1.2,0.0%
Fc1cccc(NC(=S)N2CCn3cccc3C2c2cccnc2)c1 (stereo not given),1.1%,2.3%,-8.0%[15.4 µM],2.9,4.0,-5.8,.
CC(C)(C)C(=O)NCCCNc1ccc([N+](=O)[O-])cc1,8.8%,30.9%[activator],4.9%[15.4 µM],-0.4,-12.3,-4.7,.
FC(F)(F)c1nc(N2CCCC2)ncc1-c1nnnn1-c1ccccc1,35.5µM*,11.2%,-34.7%,-0.2,-7.6,-6.9,-1.3%
Cc1ccc(-c2ccccc2[C@@H]2C[C@H]3CN(C)C(=O)[C@]34CCCN24)o1,-0.1%,6.5%,1.6%[15.4 µM],2.6,2.7,-12.0,.
C/C(=N/OCO/N=C(\C)c1ccc(F)cc1F)c1ccc(F)cc1F,9.5%,7.3%,-52.6%[inhibitor],1.2,-32.8,2.7,-2.1%
COc1ccc(OC)c(S(=O)(=O)N(C)CC(=O)Nc2ccccc2OC)c1,5.4%,10.1%,9.4%,0.4,-5.0,-27.4,-3.3%

# A run of entries from further up, as a working copy:
SMILES,gsp antagonist,Sfp PPTase inh,gsp agonist,Menin MLL FP FL,TRPV1 potentiator,D2 potentiator,ClpP mod
Fc1cccc(NC(=S)N2CCn3cccc3C2c2cccnc2)c1 (stereo not given),1.1%,2.3%,-8.0%[15.4 µM],2.9,4.0,-5.8,.
CC(C)(C)C(=O)NCCCNc1ccc([N+](=O)[O-])cc1,8.8%,30.9%[activator],4.9%[15.4 µM],-0.4,-12.3,-4.7,.
